Lassa entry inh: blocks Lassa virus binding to or entry into cells; Lassa virus pseudotype entry inhibition, cell reporter; control for the full effect not named in the record; Potency, µM (top dose mostly 37.9 µM), without a hit: at the highest dose activity change, negative = inhibition, actives largely listed as inhibitors; 1.2% of 300,000 active; AID 540256; active means well fitted inhibition curve with a large enough effect; inconclusive means small, poorly fitted or top-dose-only effect, or effect the other way; inactive means flat fitted curve, though single readings scatter; tested in HEK293 cells; note: % is set by controls: 0 for no effect and ±100 for the full control effect; nearly all actives have a fitted effect of over 50% in size; luciferase read-out
NS1 function inh: blocks influenza NS1 protein function | S. cerevisiae slowed by influenza A NS1, growth recovery by OD600 | Potency, µM (highest dose often 46.1 µM), inactives show at the highest dose activity, positive = more growth | 0.4% of 270,000 active; active means well fitted rising curve with a large enough effect; inconclusive means small, poorly fitted or top-dose-only effect; inactive means no such curve, though single readings can be large or run the other way; note: nearly all actives have a fitted effect of over 50% in size
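In this qHTS, NS1 from influenza A is expressed in budding yeast, where it slows growth. Cells are switched from glucose to 2% galactose medium (pH 6.0, -URA), treated with compound, and growth recovery is read at OD600.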
SARS PLpro yeast: SARS-CoV PLP inhibition in yeast. S. cerevisiae expressing SARS-CoV PLpro, growth rescue; control for the full effect not named in the record. Potency, µM (top dose mostly 32.9 µM), without a hit: at the highest dose activity, positive = growth rescue. 0.19% of 330,000 active. AID 485353; active means well fitted rising curve with a large enough effect; inconclusive means small, poorly fitted or top-dose-only effect; inactive means no such curve, though single readings can be large or run the other way; note: 0% is about no effect; nearly all actives have a fitted effect of over 55% in size; growth read by luminescence after 48 h
RE007 growth inh: less growth of the S. pombe RE007 Vpr strain. 0.21% of 360,000 active. S. pombe RE007 Vpr strain, BacTiter-Glo ATP luminescence, 24 h; control for the full effect not named in the record. AID 651644. Potency, µM (highest dose often 92.2 µM), without a hit: top-dose activity change, negative = less growth; active = well fitted falling curve with a large enough effect; inconclusive = small, poorly fitted or top-dose-only effect; inactive = no such curve, though single readings can be large or run the other way;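 note: % is set by controls: 0 for no effect and ±100 for the full control effect; nearly all actives have a fitted effect of over 50% in size; the assay follows cell death caused by Vpr and the record does not say whether a fall means rescue or toxicity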
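Fission yeast strain RE007, carrying one chromosomally integrated HIV-1 vpr copy, was seeded at OD 0.01 in PMG+AL medium with 23 nL pinned compound. After 24 h at 30 °C and 99% humidity, viability was read by BacTiter-Glo luminescence.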
MARV entry inh: Marburg virus entry inhibition; Marburg virus pseudotyped entry inhibition, cell reporter; control for the full effect not named in the record; about a third of the inactives were read at about 46 µM; Potency, µM (doses to about 37.8 µM), for the others: at the top dose activity change, negative = inhibition, actives largely listed as inhibitors; 1.8% of 300,000 active; AID 540276; active = well fitted inhibition curve with a large enough effect; inconclusive = small, poorly fitted or top-dose-only effect, or effect the other way; inactive = flat fitted curve, though single readings scatter; tested in HEK293 cells; about a fifth of its hits are not listed in these tables; note: % is set by controls: 0 for no effect and ±100 for the full control effect; luciferase read-out
Cruzain noTriton: cruzain (T. cruzi) inhibition without detergent. Potency, µM, for the others: max response, negative = inhibition, most hits filed as inhibitors. P25779. 2.3% of 200,000 active. purified cruzain, Z-FR-AMC fluorescence, no detergent. AID 1476;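 note: plate controls were enzyme without inhibitor for no effect and buffer without enzyme for full effect; nearly all actives have a fitted effect of over 40% in size; top concentration of the series not given in the record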
Target sequence (P25779 123-467 limits assumed): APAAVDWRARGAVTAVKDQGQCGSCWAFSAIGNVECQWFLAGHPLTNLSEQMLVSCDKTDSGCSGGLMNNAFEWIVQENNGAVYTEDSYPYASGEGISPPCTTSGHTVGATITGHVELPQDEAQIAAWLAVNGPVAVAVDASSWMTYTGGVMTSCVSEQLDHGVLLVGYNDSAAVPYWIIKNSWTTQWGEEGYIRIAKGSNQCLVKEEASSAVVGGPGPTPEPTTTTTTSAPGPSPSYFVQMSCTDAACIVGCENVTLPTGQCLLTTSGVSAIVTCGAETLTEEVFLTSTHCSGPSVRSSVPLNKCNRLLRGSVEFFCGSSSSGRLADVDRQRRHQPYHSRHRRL
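Detergent-free condition (0.00005% Triton X-100) in acetate buffer pH 5.5 with DTT. 1.5 nM enzyme and compound were pre-mixed 15 min, then 2 uM Z-FR-AMC substrate added; reaction progress from fluorescence change between first and third reads (60 s).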
2A StopGo: lowers the luciferase signal of an FMDV 2A StopGo reporter; human cells with a luciferase reporter of 2A StopGo recoding; control for the full effect not named in the record; Potency, µM (highest dose often 57.9 µM), for inactives: at the highest dose signal change, negative = less light; 1.2% of 410,000 active; active = well fitted falling curve with a large enough effect; inconclusive = small, poorly fitted or top-dose-only effect; inactive = no such curve, though single readings can be large or run the other way; tested in HEK293T cells; note: % is set by controls: 0 for no effect and ±100 for the full control effect; nearly all actives have a fitted effect of over 45% in size; luciferase light after 4 h
Cruzain inh Det: cruzain (T. cruzi) inhibition with detergent. P25779. purified cruzain, Z-FR-AMC fluorescence, 0.01% Triton. Potency, µM, inactives show max response, negative = inhibition, hits mostly inhibitors. 0.43% of 200,000 active. AID 1478;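 note: plate controls were neutral wells for no effect and buffer without enzyme for full effect; nearly all actives have a fitted effect of over 40% in size; top concentration of the series not given in the record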
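15 min RT preincubation of 1.5 nM cruzain with compound, then 2 uM Z-FR-AMC added; kinetic AMC fluorescence, 60 s delta. Triton X-100 0.01%, pH 5.5.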
* = called active by the depositor; ? = inconclusive; / = no result given; & = joins results of further samples; [ ] = dose if it differs, or a comment. Unless noted, calls come from the whole dose curve; as a rule, active = well fitted curve in the direction sought with a large enough effect; inconclusive = small, poorly fitted or top-dose-only effect, or another doubt; inactive = no such curve, though single readings can be large; an effect the other way counts as inactive or inconclusive. Potency is the fitted concentration of half-maximal effect.

SMILES	Lassa entry inh	NS1 function inh	SARS PLpro yeast	RE007 growth inh	MARV entry inh	Cruzain noTriton	2A StopGo	Cruzain inh Det
CC(C(=O)N(C1CC1)C1(C(=O)Nc2ccccc2)CCCC1)N1C(=O)c2ccccc2C1=O (stereo not given)	0%	-6%	-3%	-2%	-11%&-11%	-6%	-11%	-2.1%
CC1CN(C(=O)c2cccc(S(=O)(=O)Nc3ccccc3Cl)c2)CC(C)O1 (stereo not given)	11%	4%	4%	-8%	-18%	/	-1%	/
CC(C)NC(=O)NC(=O)COc1ccc(Br)cc1Br	7.3µM*	-2%	-13%	?	6.5µM*	-3%	-24%	-6.9%
COc1ccccc1CCNC(=O)c1ccc(NC(=O)N2CC(C)Sc3ccccc32)cc1 (stereo not given)	?	/	/	/	?	?	?	-4.4%
COc1ccc(Nc2oc(COc3cccc(C)c3)nc2C#N)cc1	11µM*	4%	-5%	-20%	?	6%	27%	-11%
CCN(C(=O)c1nn(C)c2c1CSc1ccccc1-2)c1cccc(C)c1	?	/	/	/	6%[46.1 µM]	4%	-10%	8.5%
Cc1ccc(C)c(OCc2nnc(N)s2)c1	2%	-6%	-7%	22%	?	4%	-1%	3.5%
Cc1cccc(NC(=O)CCC(=O)NCCO)c1	12%	4%	-10%	-15%	5%	10%	14%	2.6%
CN1CCN(C(=S)c2cn(CCOc3ccccc3F)c3ccccc23)CC1	-20%	0%	0%	-3%	?	/	16%	/
COC(=O)CN(c1ccccc1OC)S(=O)(=O)c1ccccc1	?	5%	9%	-3%	-5%	-8%	9%	0.3%
CCc1nnc(NC(=O)c2cc(=O)c3cc(C)ccc3o2)s1	15%[46.1 µM]	/	/	/	?	-4%	10%	-2.6%
O=C(Nc1ccccc1)c1ccc(N2CCN(c3ccccn3)CC2)c(S(=O)(=O)N2CCOCC2)c1	-19%	-7%	-2%	-5%	?	14%	-11%	2.9%
COc1ccc(Nc2cc(C(=O)NCCCN3CCN(C)CC3)c3ccccc3n2)cc1OC	5%	-9%	12%	-7%	1%[46.1 µM]	-2%	18%	-1.1%
CC(C)CNC(=O)c1cccc(NC(=O)C2CCCO2)c1 (stereo not given)	2%	2%	4%	0%	6%	-7%	-16%	-0.1%
Cc1oc(-c2ccc(-c3ccccc3)cc2)nc1CN1CCN(CC(=O)N(C)C)CC1	8%	-3%	0%	0%	9%	/	22%	/
COc1cccc(CN(C)CC(=O)NCc2ccccc2Cl)c1OC	/	/	-3%	-28%	1%[46.1 µM]	/	16%	/
CCOc1ccc(CN2CCN(Cc3cccc4c3OCO4)CC2CCO)cc1 (stereo not given)	-22%	5%	0%	-4%	?	/	-21%	/
COc1ccc(C(=O)NC2(C(F)(F)F)C(=O)Nc3c2c(=O)[nH]c(=O)n3CCc2ccc(OC)c(OC)c2)cc1 (stereo not given)	3%[46.1 µM]	1%	2%	-6%[3.69 µM]	?	7%&-1%	3%&-4%	-1.7%&2.4%
COC(=O)c1sccc1NC(=O)Cn1nnc(-c2ccccc2C)n1	-20%[46.1 µM]	/	4%	-13%	?	/	-26%	/
CCc1ccc(NC(=O)CCc2nnc3n(C)c(=O)c4sccc4n23)cc1	25%[46.1 µM]	/	/	/	?	6%	-12%	-4.1%
CCN(CC)c1ccc(N=Cc2ccc([N+](=O)[O-])o2)cc1	?	-37%	-59%	?	?	-17%	-9%	-3.8%
CCNC(=O)COC(=O)c1cc(C)n(-c2ccccc2)c1C	5%[46.1 µM]	/	1%	3%	4%[46.1 µM]	/	-2%	/
Cn1c(=O)c2c(nc(SCc3ccc(C(=O)O)cc3)n2C)n(C)c1=O	/	-2%	0%	-3%	/	/	-2%	/
CCOC(=O)/C=c1\s/c(=C\c2ccc3cc(OC)ccc3c2)c(=O)n1CC(=O)NCc1ccc2c(c1)OCO2	3%	22%	0%	-11%	-22%[46.1 µM]	/	20%	/
Cc1cccc(C)c1NS(=O)(=O)c1c(C(=O)N2CCCCC2)c(C)n(C)c1C	7%[46.1 µM]	5%	20%	2%	-4%[46.1 µM]	/	25%	/
CCCCOC(=O)CSc1nc2c(cc1C#N)C(=O)CC(C)(C)C2	19%	-33%	-6%	-27%	3%[46.1 µM]	4%	0%	1.6%
CN(C)CCCOC(=O)c1ccccc1	-8%	3%	27%	3%	2%	1%	/	7.8%
COCc1c(C(=O)OCC(=O)N2c3ccccc3CC2C)oc2ccccc12 (stereo not given)	7%	-33%	2%	4%	6%	-5%	21%	-0.1%
COc1ccc(CCN2C(=O)N(c3ccc(F)cc3)C(=O)C2CC(=O)Nc2ccc(F)c(F)c2)cc1 (stereo not given)	-7%[46.1 µM]	/	/	/	?	-15%	-3%	-7.0%
CC(C)(C)C(=O)Cn1c(=N)n(Cc2ccccc2Cl)c2ccccc21	-12%	-55%	-2%	-8%	-4%	2%	?	3.5%
CCOC(=O)c1cc2c(n(-c3ccc(Cl)cc3)c1=O)CCCC2=O	/	/	1%	5%	-15%[46.1 µM]	/	-2%	/
Cc1cc(C)cc(OCC(=O)NNC(=O)CN2C(=O)c3ccccc3C2=O)c1	12%	-15%	2%	9%	?	2%	-19%	-6.3%
O=C(Nc1ncnc2sc3c(c12)CCCC3)c1ccncc1	3%	/	0%	-3%	19%[46.1 µM]	/	1%	/
Cc1ccccc1NC(=O)c1nc[nH]c1C(=O)NCc1ccccc1	?	-61%	-2%	-1%	-18%	-2%	-16%	-4.3%
CS(=O)(=O)N1CCc2cc(S(=O)(=O)N3CCN(Cc4ccc5c(c4)OCO5)CC3)ccc21	?	-47%	3%	10%	-11%	-3%	?	0.7%
CC1CN(C(=S)NC(=O)c2ccccc2)CC(C)O1 (stereo not given)	/	4%	?	-11%	/	/	6%	/
C/C(Cl)=C/CSc1nnc2n(N)c(=O)c3ccccc3n12	6%	7%	1%	1%[3.69 µM]	6%	-10%	-9%	2.1%
Cc1ccc(SCCNC(=O)c2ccc(C)c(S(=O)(=O)Nc3cccc(C)c3)c2)cc1	?	0%	-3%	-5%	?	-7%	/	-0.8%
CCN(CC)CCCNC(=O)c1ccc2c(c1)sc1nc(-c3ccc(C)cc3)cn12	22%[46.1 µM]	/	/	/	/	12%	11%	-2.3%
Cc1cccc(NC(=O)Cn2cc([N+](=O)[O-])cn2)n1	-9%[46.1 µM]	/	1%	7%	?	/	-3%	/
CCc1cc2cc3c(cc2nc1SCC(=O)Nc1nccs1)OCO3	?	4%	3%	1%	?	20µM*	/	1.2%
CCCc1nc2sc3c(=O)n(N)cnc3c2c2c1CCCC2	8%	1%	14%	-5%	-2%	-10%	-16%	-2.3%
CCOc1cccc2sc(NC(=O)CS(=O)(=O)c3ccc(C)cc3)nc12	0%[46.1 µM]	/	/	/	/	?	-13%	-2.9%
CC(C)COP(=O)(c1ccc(N(C)C)cc1)C(O)c1cccnc1 (stereo not given)	/	-1%	-1%	-11%	/	/	-14%	/
CC(C)C[C@H](NC(=O)N1CC(=O)Nc2ccccc21)C(=O)N[C@H](Cc1ccccc1)C(=O)O	/	8%	-1%	-1%	/	/	-8%	/
CCN(C(=O)CSc1cccc[n+]1[O-])c1ccccc1	-3%	/	5%	9%	?	/	3%	/
Cc1ccc(C(=O)Nc2ncc3c(n2)CC(c2ccco2)CC3=O)cc1 (stereo not given)	4%	-30%	-16%	5%	?	-4%	22%	3.8%
Cn1c(=O)c2c(-c3cccc(Br)c3)c(C#N)c(N)nc2n(C)c1=O	18%	-41%	1%	-1%	14%[46.1 µM]	/	-26%	/
COc1ccc(NC(=O)c2ccc(C)cc2Cl)c([N+](=O)[O-])c1	-1%	7%	?	-5%	?	-1%	28%	-4.5%
Cc1ccc(CC(=O)N2CCOCC2)cc1	8%	6%	-1%	2%	9%[46.1 µM]	-6%	21%	3.7%
COc1ccc(OCc2nc(-c3ccc(OC)c(OC)c3)no2)cc1	-30%[46.1 µM]	/	/	/	-2%[46.1 µM]	6%	-18%	-7.8%
COc1cccc(C(=O)OCC(=O)Nc2cc(C)c(C)cc2[N+](=O)[O-])c1	5%	-5%	-5%	-1%	10%	-9%	-12%	-5.7%
CNc1ccc([N+](=O)[O-])cc1-c1nc2ccccc2[nH]c1=O	2%[46.1 µM]	5%	0%	20%	2%[46.1 µM]	/	-14%	/
COc1ccccc1N(CC(=O)Nc1ccccc1C(=O)NC(C)C)S(C)(=O)=O	-6%	1%	2%	-2%	0%	6%	-11%	2.4%
O=S(=O)(NCc1ccc(Cl)cc1)c1ccc(Cl)nc1	-7%	-23%	4%	-12%	-12%	5%	28%	1.1%
CCCC(=O)Nc1ccc2c(c1)COC2=O	11%	5%	0%	-11%	8%[46.1 µM]	/	-7%	/
CC(=O)N1CCN(c2ccc(S(=O)(=O)NCCN(C(C)C)C(C)C)cc2[N+](=O)[O-])CC1	-4%	-1%	-1%	5%	1%	-10%	-18%	-3.3%
Cc1c(OCC(F)(F)F)ccnc1CSc1nc2ccccc2[nH]1	?	-11%	0%	-25%	?	8%	-27%	-6.8%
Cn1c2ccccc2c2nnc(SCC(=O)NC3CCCC3)nc21	20%	-4%	0%	-10%	-3%[46.1 µM]	/	-5%	/
Cc1ccc(-c2nc(CSCC(=O)NCC3CCCO3)c(C)o2)cc1 (stereo not given)	4%[46.1 µM]	4%	0%	15%	1%[46.1 µM]	/	-4%	/
O=C(Cn1cnc2ccccc21)Nc1ccc(C(=O)O)cc1	-23%	17%	16%	-11%	1%	-8%	/	-2.6%
COc1ccc(-c2nc3cc(C)ccn3c2NC(=O)c2ccc(C)c(C)c2)cc1	16%[46.1 µM]	/	/	/	7%[46.1 µM]	20%	-1%	-4.7%

Exported bar-delimited: two of the compounds above
mol | Lassa entry inh | NS1 function inh | SARS PLpro yeast | RE007 growth inh | MARV entry inh | Cruzain noTriton | 2A StopGo | Cruzain inh Det
COc1ccc(OCc2nc(-c3ccc(OC)c(OC)c3)no2)cc1 | -30%[46.1 µM] | / | / | / | -2%[46.1 µM] | 6% | -18% | -7.8%
CC(C)C[C@H](NC(=O)N1CC(=O)Nc2ccccc21)C(=O)N[C@H](Cc1ccccc1)C(=O)O | / | 8% | -1% | -1% | / | / | -8% | /
